Assay outcomes: PubChem BioAssay, National Center for Advancing Translational Sciences (NCATS)
Prx2 Sm inh: inhibitors of Schistosoma mansoni peroxiredoxin 2. 65,000 tested, 0.07% active. Potency, µM. S. mansoni Prx2 activity coupled to TGR/GSH (TGR is thioredoxin glutathione reductase), NADPH fluorescence loss, qHTS; some inactives read as strong as hits. AID 448; active means full or partial inhibition curve with a strong effect at the top dose; inconclusive means weaker partial or single-point curve; inactive means no accepted curve; further: series up to 57 µM; many of its hits are not listed in these tables
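Prx2 inhibition was measured as reduced NADPH consumption when electrons flowed from NADPH through TGR and glutathione to Prx2 and H2O2. Plates were read kinetically over 8 min; enzyme reagents were held at 4 deg C during dispensing.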
LT uptake inh: blocks cellular internalization of anthrax lethal toxin; Potency, µM (series often up to 40 µM), inactives show at the highest dose activity change, negative = inhibition, actives largely listed as inhibitors; 70,000 tested, 0.67% active; Cells, anthrax lethal toxin internalization, FRET ratio (460/530); AID 912; active = well fitted falling ratio curve with the 530 nm signal flat; inconclusive = other ratio curves, or a change in one channel alone; inactive = flat curves in the ratio and both channels; the % refers to the ratio; further: on the % scale 0 is the no-effect control and ±100 the full control effect; nearly all actives have a fitted effect of over 50% in size; tested in ME-180 cells; beta-lactamase reporter
* = called active by the depositor; ? = inconclusive; nt = not tested or not shown; [ ] = remark or other dose. Potency means the concentration at half of the fitted maximal effect.

Results follow in this order: Prx2 Sm inh | LT uptake inh
O=C(c1ccccc1)c1ccc(N2CCOCC2)c(NC(=O)c2ccco2)c1
→ >57 | nt
Fc1ccc(Nc2ncncc2-c2ccccc2C(F)(F)F)cc1
→ >57 | 1%
COc1ccc(Nc2ncnc3nc[nH]c23)cc1OC
→ >57 | 12%
CC(C)NCC(O)c1ccc(O)c(O)c1 (centres undefined)
→ nt | 12%
COc1ccccc1NC(=O)NCc1ccc2c(c1)OCO2
→ >57 | 2%
CC1CCC(NC(=O)c2cc3c(=O)n(C)c4ccccc4c3n2C)CC1 (centres undefined)
→ >57 | -18%
COCCCNC(=O)CC(NS(=O)(=O)c1ccc(C)cc1)c1ccco1 (centres undefined)
→ >57 | 9%
COC(=O)c1c(NC(=O)c2ccc(C)o2)sc2c1CCCCC2
→ >57 | -38%
COC(=O)[C@@]1(Cc2ccc(F)cc2)[C@H]2c3cc(C(=O)N4CCCC4)n(CCN4CNCC4=O)c3C[C@H]2CN1C(=O)c1ccccc1
→ >57 | ?
N#Cc1c(C#N)c(-c2ccccc2)n(-c2ccc(C(=O)O)cc2)c1N
→ >57 | nt
O=C(CCC(=O)N1CCN(c2ccccn2)CC1)Nc1nnc(C2CCCCC2)s1
→ >57 | -5%
N#Cc1c(N)oc(-c2ccco2)c1-c1ccco1
→ >57 | 10%
NC(=O)C1(S(=O)(=O)c2ccccc2)CCCCC1
→ nt | 0%
CCOC(=O)N1CCN(C(=O)c2cc(-c3ccc(OCC)cc3)nc3ccccc23)CC1
→ >57 | ?
COCCNC(=O)c1cc(-c2cccs2)on1
→ >57 | -3%
CCNc1ncc2nc(-c3ccccc3)c(=O)n(Cc3cccc(OC)c3)c2n1
→ >57 | ?
COc1cccc(-c2cc(C(F)(F)F)nc(N3CCCCC3)n2)c1
→ >57 | -20%
CCOC(=O)/C=C(\C)Nc1cc(C)nn1-c1ccccc1
→ nt | -8%
CC(C)Cn1c(N)c(C(=O)COC(=O)c2ccc3c(c2)OCCO3)c(=O)n(C)c1=O
→ >57 | ?
CC(=O)c1c(C)n(CC(=O)NCc2ccc3c(c2)OCO3)c2ccccc12
→ >57 | -9%
CO[C@@H]1/C=C\CC(=O)N[C@@H](C)C(=O)OC[C@@H](OC)[C@H](C)CCCC(=O)OC[C@H]1C
→ nt | -2%[1.6 µM]
Fc1cccc(CSc2nc3ccncc3[nH]2)c1
→ >57 | -1%
CCCOc1ccc(C(CC(=O)O)NC(=O)c2ccc3c(c2)OCO3)cc1 (centres undefined)
→ >57 | 7%
CCCCn1c(SCc2ncc(-c3ccccc3)o2)nc2cc(S(N)(=O)=O)ccc21
→ >57 | -13%
Cc1ccc(S(=O)(=O)c2cc3c(=O)n4ccccc4nc3n(Cc3ccco3)c2=N)cc1
→ nt | -4%
Cc1ccc(C)c(OCC(O)CN2CCCCC2C)c1 (centres undefined)
→ >57 | -7%
Cc1ccc(NC2CC(=O)N(c3ccc(N4CCCCC4)cc3)C2=O)cc1 (centres undefined)
→ >57 | -3%
CCc1ccc2c(CN3CCN(S(=O)(=O)c4ccc5c(c4)OCCO5)CC3)cc(=O)oc2c1
→ >57 | -26%
O=C(CN1C(=O)c2ccccc2S1(=O)=O)NCCC1=CCCCC1
→ >57 | nt
CCc1ccccc1S(=O)(=O)Cc1ccc(C(=O)N2CCN(c3ccccn3)CC2)o1
→ >57 | -26%

Entries of single compounds as entered above. Order of screens: Prx2 Sm inh	LT uptake inh
Entry for COc1ccc(Nc2ncnc3nc[nH]c23)cc1OC → >57	12%
Entry for CCNc1ncc2nc(-c3ccccc3)c(=O)n(Cc3cccc(OC)c3)c2n1 → >57	?

More compounds follow:
Results follow in this order: Prx2 Sm inh | LT uptake inh
O=C(Nc1cccc(-n2cnnn2)c1)c1ccco1
→ >57 | -5%
COc1ccc(CCNc2nnc(Sc3nnnn3-c3ccccc3)s2)cc1OC
→ >57 | -24%
O=c1c2cnn(-c3ccccc3Cl)c2ncn1Cc1cccnc1
→ >57 | 5%
CCOC1=NC(C(=O)O)c2ccccc2/C(=C(/C)Cl)N1 (centres undefined)
→ >57 | 16%
C=CCN1C(=O)C2C(C(=O)NC)C3C=CC2(O3)C1C(=O)NCc1ccc(OC)cc1 (centres undefined)
→ >57 | -19%
O=C(CC1(O)CCCCC1)OC1CCCC1
→ >57 | 6%[8 µM]
O=C(CC1Sc2ccccc2NC1=O)Nc1cccc(-c2nnc3n2CCCCC3)c1 (centres undefined)
→ >57 | -12%
O=C(CNS(=O)(=O)c1ccccc1)NCc1ccccn1
→ >57 | -18%
Cc1ccc(N2CC(C(=O)OCc3ccccc3F)CC2=O)cc1 (centres undefined)
→ >57 | 20%
CCN(CC)C(=O)c1cn(CC)c(=O)c2cc(OC)c(OC)cc12
→ >57 | -4%
COc1ccc(-c2cc(C(F)(F)F)nc(N3CCCCCC3)n2)cc1
→ >57 | -11%
Cn1c(=O)c2c(nc(CN3CCc4ccccc4C3)n2Cc2cccc(Cl)c2)n(C)c1=O
→ >57 | 7%
c1ccc(-c2nnc(SCc3cn4ccsc4n3)o2)cc1
→ >57 | 13%
O=C(Nc1cccnc1)c1ccccc1F
→ nt | 2%
COCCn1c(=O)c(CCc2ccccc2)nc2cnc(Oc3ccc(OC)cc3)nc21
→ >57 | ?
COc1ccccc1NC(=O)Cn1c(CN2CCCCC2)nc2ccccc2c1=O
→ >57 | -16%
COc1ccccc1NC(=O)N1CCCC1C(=O)NCc1ccc(F)cc1 (centres undefined)
→ >57 | -4%
Clc1ccc(CSC2=NCCCN2)cc1Cl
→ >57 | -17%
O=C(CCn1c(=O)sc2ccccc21)NCCCn1ccnc1
→ >57 | -23%
Cc1c(C(=O)OCC(=O)N2c3ccccc3CC2C)oc2ccccc12 (centres undefined)
→ >57 | ?
C=CCn1c(SCC(=O)NC(=O)NCc2ccco2)nc2sc(C)c(C)c2c1=O
→ >57 | -1%
Cc1ccc(-c2noc(CCC(=O)N3CCCC3)n2)cc1
→ >57 | -19%
CC1CCCN(C(=O)C2c3ccccc3C(=O)N3CCc4ccccc4C23)C1 (centres undefined)
→ >57 | -2%
CC(=O)c1ccc(OCC(=O)NC2CCS(=O)(=O)C2)cc1 (centres undefined)
→ >57 | -6%
CC(C)(C)c1ccc(-c2nnc(SCC(=O)O)n2N)cc1
→ >57 | 1%
CC(C)Oc1ccc(C(CC(=O)O)NC(=O)CSc2ncn[nH]2)cc1 (centres undefined)
→ >57 | -12%
CCCCCOC(=O)NCCOC(=O)Nc1ccc(C(=O)OCC)cc1
→ >57 | ?
CCOCc1nnc(NC(=O)c2ccco2)s1
→ >57 | 0%
CC1=C(C(=O)OC(C)C)C(C)NC(=O)N1 (centres undefined)
→ >57 | -15%
CCN1CCN(c2cc(C)c3cc(NC(=O)c4ccc5c(c4)OCO5)ccc3n2)CC1
→ >57 | 10µM*

A second format for 2 compounds above:
molecule	Prx2 Sm inh	LT uptake inh
Cc1ccc(N2CC(C(=O)OCc3ccccc3F)CC2=O)cc1 (centres undefined)	>57	20%
CCN(CC)C(=O)c1cn(CC)c(=O)c2cc(OC)c(OC)cc12	>57	-4%

(listing goes on)
Results follow in this order: Prx2 Sm inh | LT uptake inh
CCOc1ccc(-n2c(SCC(=O)NC(C)CC)nc3n[nH]c(C)c3c2=N)cc1 (centres undefined)
→ >57 | -10%
COCCCNC(=O)c1ccc(C(=O)NCCCOC)cc1
→ nt | 2%
CC(=O)c1c(C)n([O-])c2cc(C)ccc2[n+]1=O
→ >57 | -9%
CCOCCn1c(CN2CCC(C)CC2)nc2c1c(=O)n(C)c(=O)n2C
→ >57 | 3%
C[C@@H](N)[C@@H](C)Cc1ccccc1
→ >57 | -3%[8 µM]
O=C(c1ccco1)N1CCN(C2=NS(=O)(=O)c3ccccc32)CC1
→ >57 | 3%
C#CCOC(=O)CCC(=O)Nc1cc(OC)nc(OC)n1
→ >57 | nt
Clc1ccccc1-c1nccc(NCc2cccs2)n1
→ >57 | -6%
O=C(c1cccc(F)c1)N1CCC[C@@]2(CCN(c3cccc(-c4ccccc4)c3)C2)C1
→ >57 | -7%
Cc1cccc(NC(=O)C2CCN(S(=O)(=O)c3cccc4nsnc34)CC2)n1
→ >57 | 19%
O=C(CN1CCN(CC(=O)Nc2ccccc2Cl)CC1)Nc1ccc2c(c1)OCCO2
→ >57 | 7%
COc1ccc(-n2c(=O)c3c4c(sc3n3c(C)nnc23)CCCC4)cc1
→ nt | 1%
Cc1cc(C)c(NC(=O)CN2C(=O)NC3(CCCCC3)C2=O)c(C)c1
→ >57 | 12%
O=C(COc1ccc(Cl)cc1Cl)Nc1nc2n(n1)C(c1ccccc1)CC(=O)N2 (centres undefined)
→ >57 | -11%
CCOC(=O)C(Sc1nnc2c3ccccc3n(CC)c2n1)C(=O)OCC
→ >57 | 0%
CCCc1nnc(NC(=O)CCC(=O)O)s1
→ >57 | 1%
COC(=O)Cc1cc(=O)n2[nH]c(C)nc2n1
→ >57 | -8%
COc1ccccc1-c1cc(C(=O)NCc2ccco2)no1
→ >57 | -18%
CC1(C)CC(=O)C(C=NCCCN2CCCC2=O)=C(O)C1
→ >57 | 0%
COc1ccc(NC(=O)CCC2COc3ccccc3O2)c(OC)c1 (centres undefined)
→ >57 | -10%
COC(=O)C1(Cc2ccccc2)C=C2C(=C(c3ccccc3)C(=O)C2C)CN1 (centres undefined)
→ >57 | -21%
CCOC(=O)C1CCN(S(=O)(=O)c2cccc(-c3cn4cccnc4n3)c2)CC1
→ >57 | ?
Cc1ccc(S(=O)(=O)c2nc(NCCCn3ccnc3)sc2Cl)cc1
→ >57 | 14%
O=C(NCc1cccnc1)NC1CCCCC1
→ >57 | -8%
O=C(c1ccccc1C(=O)N1CCN(c2ccccc2F)CC1)N1CCN(c2ccccc2F)CC1
→ nt | -14%
COc1ccc(C2C(C(=O)N3CCN(c4ccccn4)CC3)CC(=O)N2c2ccc(OC)cc2)cc1 (centres undefined)
→ >57 | -17%
CN(C)c1ncc2nc(-c3cccc(C#N)c3)c(=O)n(C)c2n1
→ >57 | ?
COc1ccc(NC(=O)Nc2cc(C)ccc2OC(F)F)c(OC)c1
→ >57 | -2%
CCOC(=O)N1CCN(C(=O)c2cccc(-n3c(=S)[nH]c4cc(Cl)ccc4c3=O)c2)CC1
→ >57 | ?
COc1ccccc1C(=O)n1nc(-c2ccccc2)nc1NCc1ccco1
→ >57 | -7%

Overlap with the part before: 4 compounds, followed by the next part.
Results follow in this order: Prx2 Sm inh | LT uptake inh
CN(C)c1ncc2nc(-c3cccc(C#N)c3)c(=O)n(C)c2n1
→ >57 | ?
COc1ccc(NC(=O)Nc2cc(C)ccc2OC(F)F)c(OC)c1
→ >57 | -2%
CCOC(=O)N1CCN(C(=O)c2cccc(-n3c(=S)[nH]c4cc(Cl)ccc4c3=O)c2)CC1
→ >57 | ?
COc1ccccc1C(=O)n1nc(-c2ccccc2)nc1NCc1ccco1
→ >57 | -7%
CCCC(C(=O)NC1CCCC1)N(Cc1cccs1)C(=O)c1snc(C(N)=O)c1N (centres undefined)
→ >57 | -18%
COc1ccc(Cn2c(=O)sc3ccccc32)cc1
→ >57 | -8%
CCOc1ccc2nc(SCC(=O)N3CCCCCC3)c(C#N)cc2c1
→ >57 | -2%
CCn1c(Cc2ccccc2)nnc1SCC(=O)Nc1ccc(S(N)(=O)=O)cc1
→ >57 | nt
CCn1c2ccccc2c2cc(N)ccc21
→ >57 | -21%
CCN(C(=O)c1ccco1)c1nc(CC(=O)Nc2ccc(Cl)cc2)cs1
→ >57 | ?
COc1ccc2c(Cl)c(C(=O)NCCCn3ccnc3)sc2c1
→ >57 | 4%
S=C(c1ccc(-c2ccc(Cl)c(Cl)c2)o1)N1CCOCC1
→ nt | ?
COCCn1nnnc1C(C(C)C)N(Cc1cccnc1)Cc1ccccc1Cl (centres undefined)
→ >57 | -3%
CCn1c(SCC(=O)Nc2nc(-c3ccccc3)cs2)nnc1-c1ccccc1O
→ >57 | ?
COc1cccc(C2NC(=O)c3ccccc3O2)c1OC (centres undefined)
→ >57 | 13%
COc1cccc(NC(=O)c2cccs2)c1
→ >57 | -12%
COC(=O)C1C(=O)C2=C(CC1C)NC(C)=C(C(=O)OC(C)C)C2c1ccc(OC)c(O)c1 (centres undefined)
→ >57 | 8%
Cc1nc2cnc(N3CCN(C)CC3)nc2n(-c2ccccc2)c1=O
→ >57 | 2%
CCN(CC)c1nc(SCC(=O)O)nc(N(CC)CC)n1
→ >57 | -5%
CCCS(=O)(=O)N1CCC(C(=O)NCCCN(C)Cc2ccccc2)CC1
→ >57 | 19%
COc1ccc(CCNC(=O)CCN2C(=O)C(C)Oc3ccc(C)cc32)cc1OC (centres undefined)
→ >57 | 3%
CC(=O)Nc1ccc(S(=O)(=O)N2CCC(c3nc4ccc(C)cc4[nH]3)CC2)cc1
→ >57 | -9%
S=C(c1ccc2c(c1)OCO2)N1CCCC1
→ >57 | 3%
CN(C(=O)CN1C(=O)c2ccccc2S1(=O)=O)c1ccccc1C(=O)O
→ >57 | -1%
N#CCCn1cc(/C=N/O)c(-c2ccc(-c3ccccc3)cc2)n1
→ >57 | ?
CCn1c(SCC(=O)Nc2ccc(Cl)cc2)nnc1C1CC1
→ >57 | ?

Only part of the results is shown. The share of hits here may be higher or lower than overall.
